D1 ag: Allosteric Agonists of the Human D1 Dopamine Receptor: qHTS; HEK293 T-REx D1 cells, calcium flux, agonist mode; activation, % at 2 µM; actives 1% (n = 360,000); D(1A) dopamine receptor (Homo sapiens), P21728; note: 0% is about no effect
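Tetracycline-induced HEK293 TREx D1 cells, force-coupled to calcium signalling, were dye-loaded with a no-wash calcium kit. Compound was pin-added after a 10 s baseline. Fluorescence was read kinetically at 1 cycle/s for 180 s, with calcium rises flagged as agonism.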
D1 potentiator: Potentiators of Human D1 Dopamine Receptor: qHTS. D(1A) dopamine receptor (Homo sapiens), P21728. HEK293 TREx D1 cells, calcium flux, dopamine EC20 potentiation. potentiation, % at 10 µM. actives 0.036% (n = 360,000); in the data active = potentiation above about 30%; note: 0% is about no effect
D2 agonist: HTS Assay for Allosteric Agonists of the Human D2 Dopamine Receptor: Primary Screen for Agonists | HEK293 T-REx D2 cells, calcium flux agonist mode | activation, % at 2 µM | actives 0.53% (n = 340,000) | AID 485358, 2010;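 active = activation over 3 SD above normal in the single-dose calcium agonist read, cut at about 30% in these data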; note: 0% is about no effect
Target sequence (P14416 whole entry, looked up): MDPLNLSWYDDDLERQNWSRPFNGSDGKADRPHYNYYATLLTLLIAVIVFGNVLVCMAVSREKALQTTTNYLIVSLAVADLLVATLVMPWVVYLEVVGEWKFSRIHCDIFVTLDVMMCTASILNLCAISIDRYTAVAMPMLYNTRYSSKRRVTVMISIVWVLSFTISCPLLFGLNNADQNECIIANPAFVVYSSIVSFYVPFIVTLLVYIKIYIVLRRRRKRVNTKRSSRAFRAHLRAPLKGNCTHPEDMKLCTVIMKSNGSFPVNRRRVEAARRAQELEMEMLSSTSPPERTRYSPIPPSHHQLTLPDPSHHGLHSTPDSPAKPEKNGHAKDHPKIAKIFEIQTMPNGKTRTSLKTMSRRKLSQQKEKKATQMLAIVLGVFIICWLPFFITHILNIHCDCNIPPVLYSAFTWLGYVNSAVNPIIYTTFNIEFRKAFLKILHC
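Agonism scored from kinetic calcium signal (1 read/sec, 180 s) following compound pin transfer, after a 10 s baseline. Cells: HEK293 Trex line expressing inducible D2 receptor coupled to calcium, dye-loaded after overnight culture at 30 C.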
TRHR PAM: qHTS for Small Molecule Agonists and Allosteric Enhancers of Human TRH Receptor: Primary Screen for Enhancers; actives 0.66% (n = 360,000); enhancement, % at 2 µM; AID 493056, 2011; Thyrotropin-releasing hormone receptor (Homo sapiens), P34981; TRHR cells, fluo-8 calcium fluorescence, EC20 TRH enhancement; in the data active = enhancement above about 30%; note: 0% is about no effect
Target sequence (P34981 whole entry, looked up): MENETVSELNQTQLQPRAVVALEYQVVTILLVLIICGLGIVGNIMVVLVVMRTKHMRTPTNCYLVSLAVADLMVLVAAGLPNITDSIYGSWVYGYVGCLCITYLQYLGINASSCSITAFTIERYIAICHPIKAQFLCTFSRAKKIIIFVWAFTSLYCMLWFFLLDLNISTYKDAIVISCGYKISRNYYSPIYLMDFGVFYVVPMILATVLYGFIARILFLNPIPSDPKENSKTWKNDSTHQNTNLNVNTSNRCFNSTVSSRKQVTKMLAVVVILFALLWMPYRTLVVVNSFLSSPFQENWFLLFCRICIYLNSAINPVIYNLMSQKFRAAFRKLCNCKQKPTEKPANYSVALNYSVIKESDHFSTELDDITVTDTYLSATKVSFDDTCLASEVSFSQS
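TRHR-expressing cells loaded with fluo-8 calcium dye were read kinetically (ex 480/em 530) during compound addition, then stimulated with an EC20 of TRH (10 nM final). Enhancement of the Gq-mediated intracellular calcium response was scored.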
D2 PAM: HTS Assay for Positive Allosteric Modulators of the Human D2 Dopamine Receptor: Primary Screen for Potentiators. HEK293 T-REx D2, calcium flux, EC20 dopamine potentiation. potentiation, % at 10 µM. AID 485347, 2010. D(2) dopamine receptor (Homo sapiens), P14416. actives 0.34% (n = 340,000);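 active = potentiation over 3 SD above the plate norm, cut at about 30% in these data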; note: 0% is about no effect
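Calcium flux readout, no-wash dye, 1 read/s. Inducible HEK293 Trex D2 line, overnight 30 C. Compound alone 180 s (agonist flags), then EC20 dopamine, another 180 s to score potentiation.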
D1 antagonist: Antagonist of Human D 1 Dopamine Receptor: qHTS | D(1A) dopamine receptor (Homo sapiens), P21728 | HEK293 TREx D1 cells, calcium flux, dopamine EC80; stronger effect = lower value | activity change, negative = inhibition, % at 10 µM | actives 3.2% (n = 360,000) | AID 504652, 2011; in the data active = activity change below about -30%; note: % is set by controls: 0 for no effect and ±100 for the full control effect
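Cells carrying a force-coupled, tetracycline-inducible human D1 receptor report calcium flux. Each well gets a 10 s baseline, compound with 180 s monitoring, then an EC80 dopamine stimulus with a second 180 s kinetic read.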
D2 antag: HTS Assay for Allosteric Antagonists of the Human D2 Dopamine Receptor: Primary Screen for Antagonists; D(2) dopamine receptor (Homo sapiens), P14416; HEK293 TREx D2 cells, calcium flux, dopamine EC80; inhibition, % at 10 µM; actives 2% (n = 340,000); in the data active = inhibition above about 30%; note: 0% is about no effect
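In this primary screen, negative modulation is detected by tracking calcium flux after an EC80 dopamine challenge in inducible HEK293 T-REx D2 cells preexposed to test compound for 180 s.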
TRHR ag: qHTS for Small Molecule Agonists and Allosteric Enhancers of Human TRH Receptor: Primary Screen for Agonists. Thyrotropin-releasing hormone receptor (Homo sapiens), P34981. TRHR cells, calcium flux fluo-8, FDSS agonist mode. activation, % at 2 µM. actives 0.18% (n = 360,000). AID 493084, 2011; note: 0% is about no effect
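Fluo-8-loaded TRHR cells; 10 s baseline, compound added, kinetic Ca2+ fluorescence read 1/s, agonist mode.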
Numbers without * were called inactive; · = no result given. Cut-off read from the data, not from the text of the source, unless noted: active = activation above about 30%; inactive = the rest. Some of the compounds tested; rates above refer to the full screens.

SMILES	D1 ag	D1 potentiator	D2 agonist	TRHR PAM	D2 PAM	D1 antagonist	D2 antag	TRHR ag
Cc1cccc(N(C(=O)c2csnn2)C(C(=O)NC2CCCCC2)c2ccncc2)c1 (centres undefined)	0	-2	0.1	54*	4	12	-18	-0.1
CC(C)c1c(O)nc(SCCN(C)C)[nH]c1=O	2	-5	0.8	9	3	-12	-12	0.1
CCn1c(Cc2ccccc2)nnc1SCC(=O)Nc1ccc(S(N)(=O)=O)cc1	0	3	-0.3	1	9	10	-8	0.3
Cc1nc2c3c(sc2c(=O)[nH]1)NC(=O)CC3c1ccccc1Cl (centres undefined)	2	-2	-1.1	0	22	-1	-15	-0.1
COc1ccc(CCn2c(=O)c3cccnc3n(CC(=O)Nc3c(C)cccc3C)c2=O)cc1OC	0	-5	·	1	7	-7	·	-0.2
COc1ccc(CNc2ncnc3c2cnn3-c2ccc(Cl)cc2)cc1	2	0	·	6	-16	7	·	0.5
Cc1cc(C)c(C(=O)N2CCCC(CNC(=O)C3(c4ccc(Cl)cc4)CC3)C2)c(=O)[nH]1 (centres undefined)	4	-6	0.4	17	15	1	-30	-1.3
CCn1c(=O)c2c(nc(SCC(=O)NCC3CCCO3)n2C)n(C)c1=O (centres undefined)	1	-4	0.5	-2	10	1	-9	0.1
CN(C)c1nc(Nn2cnnc2)nc(N(C)C)n1	2	-10	0.1	-1	-2	5	-4	-0.8
COC(=O)c1sc(N2C(=O)C(O)=C(C(=O)c3ccc(C)o3)C2c2ccc(OC)c(OC)c2)nc1C (centres undefined)	2	-2	·	11	·	-7	·	0.9
Cc1ccc(-c2nc3cc(NC(=O)c4cc5ccccc5o4)ccc3o2)cc1	0	2	0.4	0	4	0	·	-0.1
O=C(C1CC(=O)N(c2ccc(F)cc2)C1)N1CCN(c2ccc(F)cc2)CC1 (centres undefined)	3	-4	-1.5	0	-4	1	3	-0.8
O=C(O)CSc1ccc2nnc(-c3cccnc3)n2n1	6	-4	0.2	0	13	-7	8	0.6
CC(C)NC(=O)C1CCN(C2CCN(CC3CC=CCC3)CC2)CC1 (centres undefined)	1	2	1.0	5	4	-11	-5	0.7
CC1CCN(C(=O)c2cc3c(=O)n4ccccc4nc3s2)CC1	2	·	-2.7	14	2	15	2	0.1
Cc1sc2ncn(CC(=O)NCCCC(=O)N3CCN(c4ccccc4)CC3)c(=O)c2c1C	1	5	1.8	8	-9	15	-2	-0.9
CCOC(=O)c1cccc(NC(=O)c2cc3c(=O)n(Cc4cccnc4)ccc3nc2C)c1	3	-8	-0.3	4	-4	9	·	-0.4
O=C(Nc1cccc(S(=O)(=O)NC2=NCCCCC2)c1)c1cccnc1Cl	1	-3	0.5	14	-1	1	4	0.6
CCOC(=O)c1c(NC(=O)C(C)NCc2ccco2)sc2c1CCC(C)C2 (centres undefined)	3	-4	-0.2	-2	14	5	-11	-0.1
COCCn1c(=NC(=O)CSCC(=O)N2CCOCC2)sc2cc(C)ccc21	0	-6	-0.8	13	-1	14	0	-0.2
NS(=O)(=O)c1ccc(NC(=O)CSc2nnc(COc3ccccc3Cl)n2C2CC2)cc1	3	-5	·	-1	·	-20	·	0.1
Cc1nn(C(C)C(=O)O)c(=O)c2c1sc1ccccc12 (centres undefined)	5	-2	1.1	2	11	9	8	0.2
COc1ccc(CN2C(=O)c3cccnc3C2=O)cc1S(=O)(=O)NC(C)C	1	-4	0.5	-8	2	15	9	-0.7
COC(=O)c1sc2nc(N)c(C#N)cc2c1N	2	-5	0.1	2	3	17	20	-0.5
Cc1ccc(C(=O)c2cn(CC(=O)Nc3ccc(C(C)C)cc3)c3nc(C)ccc3c2=O)cc1	4	2	-0.9	22	-11	20	·	0.9
Cc1cc2c(cc3c(SCc4cccc(F)c4)nnc(C)n32)o1	1	-4	-0.8	1	3	-5	·	0.2
O=C(NC1(C(F)(F)F)C(=O)Nc2c1c(=O)[nH]c(=O)n2-c1ccc(Cl)cc1)c1ccccc1F (centres undefined)	4	-1	0.7	-4	1	-17	·	0.5
CCCCOc1ccc(/C(O)=C2/C(=O)C(=O)N(Cc3cccnc3)C2c2ccncc2)c(C)c1 (centres undefined)	0	-1	0.0	13	4	-56*	10	0.9
COC(=O)c1sccc1NC(=O)C1CC=CCC1C(=O)O (centres undefined)	8	1	-0.1	-2	7	-28	23	-0.9
O=C1OC(c2ccc(Br)cc2)=N/C1=C\N1CCCCC1	0	-4	-0.2	-6	-4	-29	-19	0.3
CCc1cc2c(cc3c(=O)n(CC(=O)NC4CCC(C)CC4)ncn32)s1 (centres undefined)	0	0	-0.5	6	1	22	·	0.0
O=C(C1CCCN(CCCc2ccccc2)C1)N1CCCCC1 (centres undefined)	3	2	-1.2	0	-31	-4	18	-0.6
COC(=O)c1sc2[nH]c(=S)n(N)c(=O)c2c1C	10	-2	·	-6	·	6	·	0.3
Cc1ccc(S(=O)(=O)Nc2cnn(-c3ccccc3)c(=O)c2Cl)cc1	11	-3	-0.5	8	11	-10	8	-0.8
CSc1ccccc1-c1n[nH]c(=S)o1	2	-2	0.5	-5	7	6	6	-0.3
Nc1c(-c2ccccc2)cnn1C1CCS(=O)(=O)C1 (centres undefined)	1	0	0.0	16	-7	-2	7	0.3
Cc1cccc(C(=O)Nc2ccc3oc(-c4cccc5c(Br)cccc45)nc3c2)c1	5	-1	0.9	-11	-2	-12	·	0.0
CCc1nc(N2CCCCC2)c2oc3ccccc3c2n1	1	-2	0.7	0	-6	-8	0	0.0
COc1ccc(OC)c(NC(=O)CSc2nnc(N)s2)c1	1	5	1.4	0	-15	11	-13	-0.1
CCOc1ccccc1NC(=O)c1sc2ncn(CC(=O)N3CCOCC3)c(=O)c2c1C	2	-1	0.9	-8	-10	6	18	0.5

An excerpt from further up:
SMILES	D1 ag	D1 potentiator	D2 agonist	TRHR PAM	D2 PAM	D1 antagonist	D2 antag	TRHR ag
CCCCOc1ccc(/C(O)=C2/C(=O)C(=O)N(Cc3cccnc3)C2c2ccncc2)c(C)c1 (centres undefined)	0	-1	0.0	13	4	-56*	10	0.9
COC(=O)c1sccc1NC(=O)C1CC=CCC1C(=O)O (centres undefined)	8	1	-0.1	-2	7	-28	23	-0.9
O=C1OC(c2ccc(Br)cc2)=N/C1=C\N1CCCCC1	0	-4	-0.2	-6	-4	-29	-19	0.3
CCc1cc2c(cc3c(=O)n(CC(=O)NC4CCC(C)CC4)ncn32)s1 (centres undefined)	0	0	-0.5	6	1	22	·	0.0
O=C(C1CCCN(CCCc2ccccc2)C1)N1CCCCC1 (centres undefined)	3	2	-1.2	0	-31	-4	18	-0.6
COC(=O)c1sc2[nH]c(=S)n(N)c(=O)c2c1C	10	-2	·	-6	·	6	·	0.3
Cc1ccc(S(=O)(=O)Nc2cnn(-c3ccccc3)c(=O)c2Cl)cc1	11	-3	-0.5	8	11	-10	8	-0.8
CSc1ccccc1-c1n[nH]c(=S)o1	2	-2	0.5	-5	7	6	6	-0.3
Nc1c(-c2ccccc2)cnn1C1CCS(=O)(=O)C1 (centres undefined)	1	0	0.0	16	-7	-2	7	0.3
Cc1cccc(C(=O)Nc2ccc3oc(-c4cccc5c(Br)cccc45)nc3c2)c1	5	-1	0.9	-11	-2	-12	·	0.0
CCc1nc(N2CCCCC2)c2oc3ccccc3c2n1	1	-2	0.7	0	-6	-8	0	0.0
COc1ccc(OC)c(NC(=O)CSc2nnc(N)s2)c1	1	5	1.4	0	-15	11	-13	-0.1
CCOc1ccccc1NC(=O)c1sc2ncn(CC(=O)N3CCOCC3)c(=O)c2c1C	2	-1	0.9	-8	-10	6	18	0.5

Next compounds.
SMILES	D1 ag	D1 potentiator	D2 agonist	TRHR PAM	D2 PAM	D1 antagonist	D2 antag	TRHR ag
COc1cc(OC)cc(C(=O)N2CCC(n3c(C)nc4cc(F)ccc43)CC2)c1	3	-11	0.5	6	15	21	-15	0.9
O=C(NCc1ccccc1)c1ccc(COCC(F)(F)F)o1	2	-1	0.3	3	3	0	13	-0.3
O=S(=O)(Nc1ccc(-c2nc3cccnc3s2)cc1)c1cccs1	5	-2	0.4	23	25	14	-13	-1.0
CC(C)c1ccc(OCC(=O)NC(=S)Nc2ccc3c4c(cccc24)CC3)cc1	3	5	-0.7	9	-2	13	-1	1.0
O=C(COc1ccccc1)NC(=S)Nc1cccc2cc(O)ccc12	35*	-2	3.4	-1	4	19	5	2.2
CN(C(=O)CCc1ccccc1)c1nnc(-c2ccncc2)s1	8	20	0.1	10	3	20	-5	0.0
Cc1sc2ncn(CC(=O)NCCCC(=O)N3CCN(c4ncccn4)CC3)c(=O)c2c1C	2	-1	9.7	4	13	7	-7	0.4
COc1ccc(NC(=O)c2cc3c(=O)n(Cc4cccs4)ccc3nc2C)cc1	2	3	0.7	7	-12	-9	·	-0.4
COC(=O)C1=NN(c2ccccc2OC)C2C(=O)N(c3ccccc3OC)C(=O)C12 (centres undefined)	1	5	1.1	-1	4	3	0	0.7
CCOC(=O)c1c(NC(=O)CSc2nnc(C)s2)sc2c1CCC(C)C2 (centres undefined)	0	3	0.5	-4	-3	13	-2	0.0
CCC(C)N=CC1=C(O)C(C(=O)OC)C(C)(C)CC1=O (centres undefined)	2	4	0.6	-6	2	-3	-23	-0.3
C=CCN1CCN(C(=O)c2ccc3c(c2)OCO3)CC1	2	12	-0.4	10	-2	-1	19	0.4
O=C(C1=C(O)C(=O)N(CCN2CCOCC2)C1c1ccc(F)cc1)c1cc2ccccc2o1 (centres undefined)	1	-3	-0.4	4	10	5	2	0.0
O=c1c2ccccc2n(Cc2ccc(Cl)cc2)c(=O)n1Cc1ccco1	2	-4	-1.7	-5	6	14	-10	0.2
CCOC(=O)c1c(-c2ccccc2)nnn1-c1nc(OC)nc(N2CCOCC2)n1	-1	0	1.7	12	5	-21	2	-0.2
CCN(CC)C(=O)CSc1nc2cc(OC)c(OC)cc2c(=O)n1Cc1ccc(Cl)cc1	1	0	-0.2	4	5	-8	-7	-0.1
